# Compound activity deposited in PubChem by National Center for Advancing Translational Sciences (NCATS).
# PINK1 modulator: A Quantitative High throughput Screen to Identify Chemical Modulators of PINK1 Expression; PINK1 immunofluorescence, high-content cytometry, 24 h; Potency, µM (titrated, usually from 76.6 µM), inactives show at the highest dose activation (PINK1 increase), actives largely listed as activators; 0.2% of 410,000 active; AID 624263, 2012; active = well fitted activation curve with a large enough effect; inconclusive = small, poorly fitted or top-dose-only effect; inactive = flat fitted curve, though single readings scatter; cell line not stated here;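 also: potency is read from the fitted curve at half-maximal effect; % of control where 0% means no effect; nearly all actives have a fitted effect of over 65% in size; a mitochondrial uncoupler was the plate control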
#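 Cells are seeded, rested 12 hours, then given compound at five concentrations or DMSO for 24 hours. After fixation, blocking and antibody staining, PINK1 amount and mitochondrial localization are scored; CCCP serves as control.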
# gsp antag: qHTS for Antagonists of gsp, the Etiologic Mutation Responsible for Fibrous Dysplasia/McCune-Albright Syndrome: qHTS. AID 624288, 2012. gsp-mutant cells, cAMP HTRF, 30 min; control for the full effect not named in the record. 0.4% of 340,000 active. Potency, µM (top dose mostly 76.9 µM), for inactives: at the highest dose activity change, negative = inhibition, actives largely listed as inhibitors; active = falling curve of any shape with a large fitted effect; inconclusive = falling curve, mostly with a smaller effect; inactive = flat or rising curve; cell line not stated here;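 also: intracellular cAMP measured with PDE inhibitor Ro 20-1724 present during compound exposure; potency is read from the fitted curve at half-maximal effect; % is scaled to controls: 0 for no effect and ±100 for the full control effect; nearly all actives have a fitted effect of over 65% in size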
#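 HTRF cAMP read-out (cAMP-d2 plus anti-cAMP antibody-K in lysis buffer, 30 min RT). Before lysis, cells are exposed to compounds with […] for 30 min at 37C in DPBS containing Ca/Mg, BSA and Tween 20.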
# D2 ag: Beta-Arrestin HTS for Positive Allosteric Modulators of the Human D2 Dopamine Receptor: Agonists | D(2) dopamine receptor (Homo sapiens), P14416 | DiscoveRx PathHunter D2 beta-arrestin, luminescence, 90 min; 100% = 57 uM dopamine signal | 0.084% of 360,000 active | activation, % (test concentration not listed); in the data active = activation above about 40%; inconclusive = about 15% to 40%; inactive = below about 15%; also: compound concentration not given in the record; the text of the record calls up to 30% inactive
# Target sequence (P14416 whole entry, looked up): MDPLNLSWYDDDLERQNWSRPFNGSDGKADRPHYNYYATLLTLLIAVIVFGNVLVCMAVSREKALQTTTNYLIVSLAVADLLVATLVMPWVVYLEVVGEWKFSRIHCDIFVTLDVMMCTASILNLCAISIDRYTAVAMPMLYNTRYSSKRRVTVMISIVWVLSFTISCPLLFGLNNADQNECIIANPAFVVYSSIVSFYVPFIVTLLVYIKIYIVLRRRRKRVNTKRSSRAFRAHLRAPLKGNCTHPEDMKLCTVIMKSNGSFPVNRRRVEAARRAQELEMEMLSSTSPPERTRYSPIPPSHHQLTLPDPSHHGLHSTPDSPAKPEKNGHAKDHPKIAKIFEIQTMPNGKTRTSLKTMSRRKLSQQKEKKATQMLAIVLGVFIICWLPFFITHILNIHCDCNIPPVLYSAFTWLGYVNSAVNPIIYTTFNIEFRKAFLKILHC
#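 DiscoveRx PathHunter D2 beta-arrestin cells (2,100/well) attached overnight, then compound-stimulated 90 min at 37 C in HBSS/10 mM HEPES/0.1% Tween-20 buffer; beta-galactosidase complementation read by luminescence after 1 h at ambient temperature. Dopamine 57 uM final (EC100) as control.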
# Menin MLL FP FL: qHTS Assay for Inhibitors Targeting the Menin-MLL Interaction in MLL Related Leukemias: Competition With Fluorescein Labeled MLL-derived Peptide; Fluorescence polarization, fluorescein-MLL peptide displacement from menin; FP activity change, % at 61.4 µM; 290,000 tested, under 10 active; inconclusive = falling polarisation curve, or a change in total fluorescence; inactive = total fluorescence flat and polarisation flat or rising; no compound was filed as active; the % refers to the polarisation; negative = inhibition;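 also: % of control where 0% means no effect; inhibitors lower the polarisation; unlabelled MLL peptide was the positive control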
# Sfp inh: qHTS Assay for Inhibitors of Bacillus subtilis Sfp phosphopantetheinyl transferase (PPTase); 4'-phosphopantetheinyl transferase ffp (Bacillus subtilis), Q9F4F7; Biochemical Sfp PPTase activity, qHTS; Potency, µM, inactives show max response, negative = inhibition, hits mostly inhibitors; 3.5% of 310,000 active; AID 1490, 2009; active = well fitted inhibition curve with a large enough effect; inconclusive = small, poorly fitted or top-dose-only effect, or another doubt; inactive = no such curve, though single readings can be large or run the other way;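 also: the enzyme is Sfp with the accession as filed and its product quenches rhodamine fluorescence; potency is read from the fitted curve at half-maximal effect; 0% = enzyme reaction without inhibitor and -100% = no enzyme wells; top concentration of the series not given in the record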
#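 Buffer: 50 mM Hepes-Na pH 7.6, 10 mM MgCl2, 0.01% Nonidet P-40, 0.01% BSA. Enzyme 15 nM, pre-exposed to compound 15 min; substrates then added and fluorescence change tracked over 30 min.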
# ClpP mod: qHTS Assay for Activators of ClpP. purified B. subtilis ClpP, FRET peptide cleavage, 20 min. 1.9% of 340,000 active. ATP-dependent Clp protease proteolytic subunit (Bacillus subtilis (strain 168)), P80244. Potency, µM (titrated, usually from 57.5 µM), without a hit: at the highest dose activity change, negative = active; active = well fitted falling curve with a large enough effect; inconclusive = small, poorly fitted or top-dose-only effect; inactive = no such curve, though single readings can be large or run the other way; also: potency is read from the fitted curve at half-maximal effect; the source files actives as falling curves though it sought activators and does not explain the sign; nearly all actives have a fitted effect of over 65% in size; many hits overshoot -100%
# Target sequence (P80244 whole entry, looked up): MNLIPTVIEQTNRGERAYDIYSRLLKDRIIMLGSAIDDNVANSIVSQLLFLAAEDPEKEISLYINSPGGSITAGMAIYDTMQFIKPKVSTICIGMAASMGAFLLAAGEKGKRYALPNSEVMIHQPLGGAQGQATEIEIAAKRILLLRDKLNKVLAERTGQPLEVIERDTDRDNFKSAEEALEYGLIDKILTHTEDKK
#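 ClpP 10 microg/mL final, pH 8 Tris/KCl buffer with BSA, glycerol, Tween-20; compound pinned in; FRET-FV substrate; RT 20 min; Ex320/Em430; ΔFRET vs ADEP 5.8 microM, DMSO, no enzyme.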
# gsp ag: qHTS for Agonist of gsp, the Etiologic Mutation Responsible for Fibrous Dysplasia/McCune-Albright Syndrome: qHTS; gsp mutant cells, cAMP HTRF, 30 min; control for the full effect not named in the record; Potency, µM (series often up to 76.9 µM), inactives show top-dose activation (cAMP increase), hits mostly activators; 0.13% of 340,000 active; AID 624287, 2012; active = well fitted activation curve with a large enough effect; inconclusive = small, poorly fitted or top-dose-only effect, or another doubt; inactive = no such curve, though single readings can be large or run the other way; cell line not stated here;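 also: phosphodiesterase inhibitor Ro 20-1724 added with compounds to block cAMP breakdown; potency is read from the fitted curve at half-maximal effect; nearly all actives have a fitted effect of over 60% in size; about a fifth of the inactives were tested at one dose only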
#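 Cells stably selected in G418 were plated at 2000/well, grown 16-24 hr, then given compounds in DMSO with the PDE inhibitor […] (300 uM solution added) for 30 min at 37C; cAMP was read by HTRF.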
# An asterisk follows results filed as active; ? = inconclusive; . = not tested or not shown; & = joins results of further samples; [ ] = dose if it differs, or a comment.
SMILES,PINK1 modulator,gsp antag,D2 ag,Menin MLL FP FL,Sfp inh,ClpP mod,gsp ag
O=CNC(Cc1ccccc1)C(=O)O (stereo unspecified),-0.6%,12%,-0.6,0.8,19%,-1.2%,13%
Cc1ccc(CSc2nnc(-c3ccncc3)o2)c(C)c1,4.5%,2%,0.0,1.4,3%,.,?
COc1ccccc1C(=O)Nc1sc2c(c1C(=O)NCc1ccco1)CCCC2,?,-1%,-2.3,2.5,-20%,?,2%
COc1ccccc1-c1nnc(NC(=O)c2ccc(S(=O)(=O)N3CCOCC3)cc2)o1,1.9%,-11%,-2.0,.,20%,0.0%,-25%[15.4 µM]
COc1cc(OC)cc(C(=O)Nc2nnc(-c3cccnc3)o2)c1,-1.0%,-8%,-0.4,-2.1,29%,.,0%[15.4 µM]
CCN1C(=O)N(CC)C2C1N(C(C)=O)C(=O)N2C(C)=O (stereo unspecified),-1.5%,2%,-4.8,1.9,13%,-16%,-13%
Cc1sc2nc(COC(=O)C(NC(=O)c3ccc(Cl)cc3Cl)C(C)C)[nH]c(=O)c2c1C (stereo unspecified),2.2%,4%,-4.1,5.9,-23%,18%,6%
Cc1cc(C(F)(F)F)nn1CC(=O)NCc1ccccc1,1.4%,-2%,-2.5,3.4,18%,-3.0%,?
CCOC(=O)c1ccc(-c2ccc3c(c2)CCC3)nc1C,3.3%,-9%,-5.1,9.5,-12%,?,16%
COc1ccccc1C(=O)n1nc(-c2cccnc2)nc1NCc1ccccc1,1.2%&0.3%,-6%,-2.6,3.3,-16%,-1.6%,-3%[15.4 µM]
CC(C)NC(=O)c1sc2nc3c(c(-c4cccs4)c2c1N)CN(C)CC3,0.5%,?,-3.0,-12,-6%,-3.2%,?
CC(=O)Nc1ccc(N(C(=O)CNC(=O)c2ccco2)C(C(=O)NCc2ccco2)c2ccccc2)cc1 (stereo unspecified),0.9%,20%,-3.1,4.9,13%,1.4%,-7%
Cc1sc(-c2ccccn2)nc1OC(=O)c1cccc(Cl)c1Cl,0.9%,-16%,-4.0,-0.9,?,-5.1%,1%
O=C(NCc1ccco1)c1cc2nc(C3CC3)cc(C(F)(F)F)n2n1,3.9%,2%,-2.0,5.3,9%,-2.4%,18%
COc1ccc(OC)c(C2=NOC(C(=O)NCc3cccs3)C2)c1 (stereo unspecified),4.7%,11%,2.9,-2.7,-3%,-20%,-19%
Cc1ccc(NC(=O)CN2CCN(CCN=CC3=C(O)CC(c4ccc(C)cc4)CC3=O)CC2)cc1 (stereo unspecified),-0.7%,-8%,-5.2,-1.8,19%,-2.3%,9%[15.4 µM]
CNC[C@@H](Cc1ccccc1)NC[C@@H](CC1CCCCC1)NCCCc1ccccc1,-1.5%,13%,-11,-7.2,-15%,-5.8%,-7%
O=C(NCCN1CCCCC1)c1ccc2c(c1)OCCO2,-2.3%,5%,-0.7,-2.7,5%,-1.4%,-18%
CN(C)S(=O)(=O)c1ccc(C(=O)NCCOc2ccc(F)cc2)cc1,1.9%[38.3 µM],0%,2.1,1.3,13%,0.9%,14%
COc1ccc2c(c1)OC/C(=C/c1ccc(OC)c(OC)c1)C2=O,-1.8%,.,.,1.1,?,.,.
N#Cc1ccc(CSc2nnc3[nH]c(=O)cc(N)n23)cc1,-4.2%,1%,-0.4,5.3,-8%,.,18%
Cc1nnc(NC(=O)CSc2nc(C(C)C)nc3sc(C)c(C)c23)s1,5.7%,-4%,-2.5,0.7,15%,-5.0%,-15%
Cc1nc(C(=O)NNC(=O)Nc2ccc(Cl)cc2)cs1,0.7%,11%,-2.5,0.4,21%,0.9%,8%[15.4 µM]
NC(=O)c1ccc(N2CCN(c3ccccc3O)CC2)c([N+](=O)[O-])c1,0.4%,-35%,5.8,-5.7,-4%,1.4%,-7%[15.4 µM]
CCCCCCn1c(=O)n2n(c1=O)[C@@H]1CN(S(=O)(=O)c3ccc(C)cc3)C[C@]1(O)[C@@H](OC(=O)Nc1c(C)noc1C)C2,3.0%,.,-8.3,.,.,-0.3%,?
COc1ccc(-c2nnc(SCC(=O)N3CCCC3)o2)cc1,0.6%,7%,3.2,1.8,16%,.,1%
COc1cccc(/C=C2\C(=O)C(=O)c3ccccc32)c1,6.1%[38.3 µM],-3%,-1.2,5.6,-16%,-2.8%,15%
Cc1nnc(SCc2ccccc2)nc1/C=C/NOCc1ccc(Cl)cc1Cl,15%,2%,-12,-4.8,-6%,-9.0%,16%
Cc1ccc(C)c(N2CCN(C(=O)CCc3nc(-c4ccc(Br)cc4)no3)CC2)c1,-0.4%,10%,-3.8,.,.,-3.8%,.
N/C(=N\OC(=O)CSc1ccccc1)c1ccncc1,-0.6%,8%,-0.7,.,23%,2.5%,-20%
COC(=O)CNC(c1ccccc1)c1cc(Cl)ccc1NC(=O)c1cccc(Cl)c1 (stereo unspecified),9.1%,-23%,-1.3,0.7,19%,?,-4%
CCc1nnc(NC(=O)Nc2ccccc2OC)s1,-1.0%,5%,1.8,3.0,9%,-0.6%,5%
CCC1CCCCN1CCNC(=O)C1CCN(S(=O)(=O)c2cccc3nsnc23)CC1 (stereo unspecified),-1.5%,11%,-0.6,.,13%,1.3%,16%
Cc1ccc(NC(=O)c2ccc(OC(=S)N3CCOCC3)cc2)cc1,1.9%,0%,-2.8,-0.3,6%,?,-9%
CCOc1ccc(C(=O)Nc2ccc(S(=O)(=O)NCC3CCCO3)cc2)cc1OCC (stereo unspecified),5.2%,-4%,-0.5,.,1%,-16%,14%
Cc1cc(C)cc(C(=O)NCC(=O)OCC(=O)NC2CC2)c1,0.6%,-2%,-0.3,.,.,.,-15%
COc1ccc(N2CCN(c3nc4c(C)cccn4c(=O)c3/C=C(\C#N)C(N)=O)CC2)cc1,-2.2%,-19%,0.9,-20,-16%,3.4%,8%
c1ccc(-c2csc(Nc3ncccn3)n2)cc1,12%,10%,-0.3,1.9,20%,1.6%,-6%
CCCCOc1ccc(C(=O)N2CCNC(=O)C2)cc1,0.9%,6%,-0.2,-1.1,8%,.,-6%
CCn1cc(NC(=O)Nc2ccc(OC)c(OC)c2)c(C(N)=O)n1,-2.4%,7%,12,4.1,2%,0.5%,22%
CCOC(=O)Cn1nc(C)n(-c2ccc(C(C)(C)C)cc2)c1=O,3.0%,4%,0.4,6.0,15%,1.4%,15%
CCCCN(C)CCn1c(=S)[nH]c2ncccc2c1=O,4.0%[38.3 µM],13%,-2.1,-0.4,-24%,-24%,-30%[inhibitor]
Cc1[nH]nc2ncc(C(=O)c3cc(Cl)cc(Cl)c3O)cc12,2.4%,4%,-4.1,1.7,4%,1.3%,20%
O=C1[C@@H]2[C@H](C(=O)N1CC(O)COCc1ccccc1)C1C=C[C@H]2C1 (stereo partly specified),-0.8%,-4%,-2.0,.,.,-2.3%,.
Cc1ccc(C(=O)CSc2nnc(Cn3nnc4ccccc43)n2C)cc1,-1.9%[38.3 µM],-16%,-0.1,-0.5,4%,-2.8%,5%
CCNC(=S)N1CCN(C(=O)C(Cc2ccccc2)NC(C)=O)CC1 (stereo unspecified),2.1%,8%,-2.7,-0.8,-11%,-1.1%,-1%
CC(=NNC(=O)c1ccncc1)c1ccc(Cl)cc1Cl,2.3%,4%,1.9,.,.,.,0%
COc1ccc(N2CCN(CCS(=O)(=O)c3cc(Cl)ccc3Cl)CC2)cc1,0.4%,10%,5.3,.,.,0.8%,-22%
Cc1ccc(NC(=O)C2CCCN(S(=O)(=O)c3ccc4[nH]c(=O)ccc4c3)C2)nc1 (stereo unspecified),-0.8%,5%,-0.2,0.6,14%,-4.6%,23%
CSc1nsc(SCC(=O)Nc2cccc(NC(C)=O)c2)n1,1.6%,3%,-0.6,-1.3,10%,?,10%[15.4 µM]

# Structures listed so far that contain a CF3 group, in the order listed:
SMILES,PINK1 modulator,gsp antag,D2 ag,Menin MLL FP FL,Sfp inh,ClpP mod,gsp ag
Cc1cc(C(F)(F)F)nn1CC(=O)NCc1ccccc1,1.4%,-2%,-2.5,3.4,18%,-3.0%,?
O=C(NCc1ccco1)c1cc2nc(C3CC3)cc(C(F)(F)F)n2n1,3.9%,2%,-2.0,5.3,9%,-2.4%,18%

# Next records follow:
SMILES,PINK1 modulator,gsp antag,D2 ag,Menin MLL FP FL,Sfp inh,ClpP mod,gsp ag
O=C(Cc1ccccc1)Nc1nc(-c2cccs2)cs1,1.6%,-21%,3.2,6.2,-6%,1.9%,?
CCN=C1SC(C(=O)NCCc2ccccc2)CC(=O)N1CC (stereo unspecified),0.4%,14%,-3.5,?,-13%,-1.2%,?
CCS(=O)(=O)n1nc(-c2cccnc2)nc1NCc1ccc(F)cc1,1.0%,4%,0.2,-4.5,19%,.,3%
Nc1nnc(CC(=O)N/N=C/c2ccc(-c3cccc(C(=O)O)c3)o2)s1,1.6%,-3%,1.9,12,40µM*,.,2%[15.4 µM]
Cc1ccc(NC(=O)c2c([N+](=O)[O-])c(C(C)(C)C)nn2C)c(C)c1,4.5%,8%,0.5,.,4%,1.2%,-1%[15.4 µM]

# In the list so far, 2 contain a cyano group.
SMILES,PINK1 modulator,gsp antag,D2 ag,Menin MLL FP FL,Sfp inh,ClpP mod,gsp ag
N#Cc1ccc(CSc2nnc3[nH]c(=O)cc(N)n23)cc1,-4.2%,1%,-0.4,5.3,-8%,.,18%
COc1ccc(N2CCN(c3nc4c(C)cccn4c(=O)c3/C=C(\C#N)C(N)=O)CC2)cc1,-2.2%,-19%,0.9,-20,-16%,3.4%,8%
